ALR H2O2 inh: inhibitors of human ALR sulfhydryl oxidase, primary screen, biochemical, H2O2 detection, HRP-luminol luminescence, single point. FAD-linked sulfhydryl oxidase ALR (Homo sapiens), P55789. purified ALR, DTT oxidation. inhibition, % (concentration not given with the values). 3.8% of 290,000 active;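 active = mean and each replicate at 75% or more; inconclusive = only one of the two met; inactive = neither met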;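 note: stock transfer was 7.5 nL into about 7.5 µL; 0% = neutral wells and 100% = wells with inactivated enzyme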
Target sequence (P55789 whole entry, looked up): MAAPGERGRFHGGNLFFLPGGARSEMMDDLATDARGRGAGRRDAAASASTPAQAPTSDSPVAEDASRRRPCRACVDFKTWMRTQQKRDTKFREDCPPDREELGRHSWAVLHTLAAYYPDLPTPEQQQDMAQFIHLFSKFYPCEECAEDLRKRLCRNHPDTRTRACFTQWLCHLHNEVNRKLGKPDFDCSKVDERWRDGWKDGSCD
Ecoli rRNA inh: reduced GFP signal of wild-type E. coli, primary screen, bacterial rRNA inhibitor project, GFP/RFP fluorescence, OD600, single point; E. coli WT GFP vs humanized-ribosome RFP mutants, 24 h; hits give low values; DMSO median 0, no signal -100; 1.6% of 350,000 active; GFP signal change (wild-type ribosome), % (concentration not given with the values); AID 720706, 2013;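 active = significant combined selectivity score with lowered wild-type GFP, culture density cut under 30%, mutant RFP and density less affected; inactive = any of these conditions unmet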; note: one replicate is shown; some compounds called inactive have numbers as strong as hits
MLL AF4-AF9 inh: inhibitors of AF4 peptide binding to AF9, primary screen, biochemical, AlphaScreen, biotin-AF4 peptide, FLAG-AF9, single point; Protein AF-9 (Homo sapiens), P42568; inhibition, % at 10 µM; 0.47% of 350,000 active; AID 651704, 2012;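 active = every replicate reaching a set inhibition limit, whatever the replicate mean, cut at about 25% in these data; inconclusive = mean inhibition reaches that limit but some replicates miss it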;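 note: 0% = plate neutral control median and 100% = total signal loss; the record names both 10 and 1 µM as test concentration; the first replicate is given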
Target sequence (P42568 whole entry, looked up): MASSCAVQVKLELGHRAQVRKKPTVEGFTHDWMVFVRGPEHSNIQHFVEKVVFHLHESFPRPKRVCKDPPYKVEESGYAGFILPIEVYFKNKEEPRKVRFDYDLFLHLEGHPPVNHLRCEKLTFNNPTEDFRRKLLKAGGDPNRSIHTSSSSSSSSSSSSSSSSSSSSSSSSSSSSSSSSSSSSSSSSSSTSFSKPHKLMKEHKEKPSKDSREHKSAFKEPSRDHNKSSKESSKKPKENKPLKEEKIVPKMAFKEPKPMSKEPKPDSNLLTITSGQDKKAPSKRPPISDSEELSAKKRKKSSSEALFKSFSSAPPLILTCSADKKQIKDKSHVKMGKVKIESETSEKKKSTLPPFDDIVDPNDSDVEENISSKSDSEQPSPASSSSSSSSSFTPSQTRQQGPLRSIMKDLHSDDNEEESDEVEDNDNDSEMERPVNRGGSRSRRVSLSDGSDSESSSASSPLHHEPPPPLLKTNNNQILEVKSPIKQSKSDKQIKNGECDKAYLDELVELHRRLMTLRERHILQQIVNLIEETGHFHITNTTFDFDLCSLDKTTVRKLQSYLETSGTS
E coli growth: E. coli growth inhibition, primary screen, OD600 | Escherichia coli growth, 23 h; hits give low values | OD600 absorbance (concentration not given with the values) | 0.21% of 330,000 active | AID 1053175, 2014;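 active = OD600 absorbance below the run mean of sample wells minus 3.6 SD, in any replicate, cut at about 0.56 in these data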;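 note: stock transfer was 300 nL into about 60 µL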
Vif TR-FRET: inhibitors of Vif binding to APOBEC3G peptide, primary screen, biochemical, TR-FRET, GST-Vif 1-94, biotin-A3G peptide, dose response retest (AID 1117319); Virion infectivity factor (Human immunodeficiency virus type 1 group M subtype B (isolate …; TR-FRET GST-Vif / biotin-A3G peptide binding; higher % means a stronger effect; test concentration not given here; strong numbers were not always called active; inhibition, %, or IC50 in µM where a hit was titrated; 0.57% of 260,000 active;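 active = above the screen mean plus three standard deviations and confirmed in dose response; inconclusive = results disagree or hit not tested in dose response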;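 note: Vif residues 1-94 fused to GST binding biotinylated APOBEC3G peptide 110-148; 0% = full assay without inhibitor and 100% = GST in place of GST-Vif; retest series ran down from 100 µM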
FGF22 binding: binders of human FGF22 protein, primary screen, FGF22 synaptogenesis inhibitor project, biophysical, thermal shift, single point; recombinant FGF22 thermal shift, SYPRO orange fluorescence; percent of sucrose octasulfate shift, DMSO zero; calls only at 9.99 µM; 1.5% of 340,000 active; Fibroblast growth factor 22 (Homo sapiens), Q9HCT0;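 active = melting point raised past a set limit in the mean and every replicate; inconclusive = no clear call; three in four hits are not shown here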
Target sequence (Q9HCT0 whole entry, looked up): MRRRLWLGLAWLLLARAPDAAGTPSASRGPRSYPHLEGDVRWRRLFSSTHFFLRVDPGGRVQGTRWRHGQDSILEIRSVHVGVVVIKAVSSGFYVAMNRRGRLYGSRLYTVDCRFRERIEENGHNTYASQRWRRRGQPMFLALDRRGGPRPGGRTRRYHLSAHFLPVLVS
HNF4A DNA FP: change in binding of human HNF4A to DNA, primary screen, biochemical, fluorescence polarization, FITC-DNA | 1 h | activity change, % at 10 µM | 0.3% of 360,000 active | AID 1224865, 2016; in the data active = activity change above about 30%, passing the limit was not always enough;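 note: controls were the assay level and a saturating level of protein; the project sought stronger binding though the title names inhibitors; some compounds called inactive have numbers as strong as hits; positive values seem to mean higher polarization but the record does not say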
Ecoli rRNA inh OD600: further read-out of Ecoli rRNA inh, marked with its call; OD600 change, %; measured here: OD600 growth;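 optical density of the mix in the first replicate; 0 = DMSO median and -100 = no signal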
Ecoli rRNA inh RFP: recorded beside Ecoli rRNA inh, whose call it bears; RFP signal change, %; measured here: RFP humanized mutant strains;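 first replicate; 0 = DMSO median and -100 = no signal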
The depositor's hits bear a star; i = inactive; ? = inconclusive; . = no result given; + = active, no number; & = joins results of further samples. The list is partial; rates above refer to the full screens.

structure	ALR H2O2 inh	Ecoli rRNA inh	Ecoli rRNA inh OD600	Ecoli rRNA inh RFP	MLL AF4-AF9 inh	E coli growth	Vif TR-FRET	FGF22 binding	HNF4A DNA FP
COc1cccc(-c2nc(CS(=O)CC(=O)N3CCC4(CC3)OCCO4)c(C)o2)c1 (stereo unspecified)	.	.	.	.	.	0.73	-10%&4%	.	5.2
O=[N+]([O-])c1ccc(NCc2ccccc2)c2nonc12	-18	48	19	6.1	-1.0	0.72	4%	i	.
O=c1[nH]c2ccccc2n1C1CCN(C(c2ccccc2)c2nnnn2-c2ccc3c(c2)OCCO3)CC1 (stereo unspecified)	.	-7	-7	16	-0.5	.	.	i	4.4
COC(=O)C1=C(c2ccc(F)cc2F)C[C@@H]2CC[C@H]1N2C(=O)NCc1ccc(C(F)(F)F)cc1	0	-14	-7	4.0	1.1	.	.	i	-0.7
O=C(CN1CCCCC1)c1ccc(OC(F)F)cc1	.	5	7	-1.2	-0.5	0.68	15%	i	1.6
C#CC1(O)CCC2C3CCC4=CC(=O)CCC4=C3C=CC21C (stereo unspecified)	.	0	-24	2.9	2.5	.	2%	i	1.4
Cn1nc(N)c2c1N=P(N1CCOCC1)(N1CCOCC1)N=C2c1ccccc1	12	.	.	.	.	0.69	-1%	.	0.5
COC(=O)C1=C(c2ccc(OC)c(OC)c2)C[C@@H]2CC[C@H]1N2C(=O)N1CCCCC1	2	4	0	-1.7	-3.8	.	.	i	-1.9
CNC(=O)Oc1ccc(-c2cn3cc(C)ccc3n2)cc1	43	2	16	-9.4	1.7	0.61	?	i	1.8
O=C(COc1ccc(Cl)cc1)N1CCN(Cc2ccc([N+](=O)[O-])cc2)CC1	-18	-10	-6	0.5	2.5	0.68	.	i	0.7
Cc1ccc2c(c1)C1CN(C)CCC1N2S(=O)(=O)c1ccccc1 (stereo unspecified)	-6	3	10	-2.1	-0.9	0.69	-2%	.	-0.7
CC(CCc1ccccc1)NCCC#N (stereo unspecified)	-9	7	18	1.1	-3.7	0.64	5%	i	1.9
CN1CCN(C(=O)COc2ccc(Oc3ccccc3)cc2)CC1	.	2	-2	-1.9	0.9	0.69	-2%	i	0.0
CC(NS(=O)(=O)OCC(Cl)(Cl)Cl)c1ccccc1 (stereo unspecified)	-1	1	-3	4.9	-12	0.7	.	i	-3.1
Cc1c(C)c2ccc(OCC(=O)N3CCN(Cc4ccccc4)CC3)cc2oc1=O	-11	-2	5	-1.1	0.8	0.69	.	i	-1.1
CCCN1C2CCCC1CC(NC(C)=O)C2 (stereo unspecified)	-11	.	.	.	.	0.73	-9%	.	2.0
N#Cc1ccc(NC(=O)CN2CCN(C(=O)c3cccs3)CC2)cc1Cl	.	5	3	-1.1	-0.4	0.7	0%	.	-2.1
Cc1ccc(-c2ccc(=O)n(CC(=O)N3CCC4(CC3)OCCO4)n2)cc1	-5	9	3	2.8	0.1	0.73	-5%	i	2.9
CN(C(=O)Cc1ccc(Cl)c(Cl)c1)C(CN1CCCC1)c1cccc(OCC(=O)O)c1 (stereo unspecified)	-3	.	.	.	-3.1	0.66	.	i	1.4
CCOC(=O)CC1=C(C(=O)OCC)C2(C(=O)N1CC(=O)OC)C(C#N)=C(N)Oc1ccccc12 (stereo unspecified)	-26	.	.	.	.	0.65	-4%	.	-0.9
Cc1ccc(S(=O)(=O)N2Cc3cc(-c4ccccc4)ccc3-n3nncc3C2)cc1	.	8	14	-1.2	-1.3	.	.	i	48*
c1ccc(Cn2ccnc2)cc1	-10	5	14	-0.3	-2.0	0.69	31%	i	-6.4
O=C(Cc1c[nH]c2ccccc12)NNCc1ccc(N(CCCl)CCCl)cc1	.	1	14	2.4	12	0.67	-5%	i	2.4
O=P(Nc1cccc(Cl)c1)(Oc1ccccc1)Oc1ccccc1	-14	-55	-73	-19	-2.3	0.67	0%	i	0.0
COc1ccc(C2=CC(c3ccc4c(c3)OCO4)c3c(c4ccccc4oc3=O)O2)cc1OC (stereo unspecified)	.	-4	2	59	-3.5	.	-15%	i	-4.1
CCN(CC)S(=O)(=O)c1cccc(N=Nc2c(O)n(CC)c(=S)n(CC)c2=O)c1	-3	8	12	5.4	2.3	0.69	18%	i	-1.4
C[C@@H]1CN([C@@H](C)CO)C(=O)CCCn2cc(nn2)CO[C@H]1CN(C)C(=O)Oc1ccc2ccccc2c1	.	3&-2	8&-4	2.3&-0.5	-2.9&-1.6	.	-1%	i	-2.2
CCOC(=O)C1(CCc2ccccc2)CCN(Cc2ccc3c(c2)OCCO3)CC1	-7	-30	-45	-3.0	11	0.58	6%	i	-0.8
O=c1c2ccccc2nc(-c2ccco2)n1-c1ccccn1	.	.	.	.	.	0.73	1%	.	-1.7
Cc1nc2c(-c3ccc(F)cc3)c(C)nn2c(C)c1CCC(=O)N1CCC2(CC1)OCCO2	-15	.	.	.	.	0.71	12%	.	0.9
Nc1nonc1OCCCCOc1nonc1N	.	31	31	0.5	-2.9	0.69	-12%	i	-2.7
COc1ccc(CNCCc2c[nH]c3ccccc23)cc1OC	4	-2	-2	-4.5	9.6	0.65	-9%	i	-0.7
CCCCOC(=O)c1ccc(NC(=O)c2c(O)[nH]c(=O)[nH]c2=O)cc1	34	6	16	5.9	.	0.78	.	i	1.0
CCOC(=O)c1c(C)n(Cc2ccc(F)cc2)c2ccc(O)cc12	-3	-13	-8	1.8	0.4	0.64	3%	i	0.5
CC(C)CCOP(N)(=O)Oc1ccccc1 (stereo unspecified)	11	-53	-75	-20	-1.3	0.66	.	i	1.5
CC(C)Sc1nnc([C@@H](N)Cc2c[nH]c3ccccc23)o1	58	.	.	.	.	0.73	2%	.	-1.7
COc1ccc(-n2c(SC)nc3ccccc3c2=O)cc1	5	.	.	.	.	0.68	-2%	.	-1.4
COc1ccc(N=C(C)c2c(O)[nH]c(=O)[nH]c2=O)cc1	-13	19	4	1.8	-11	0.65	.	i	0.8
O=c1[nH]c(=O)n(-c2ccccc2F)c(O)c1/C=C1\C=Nc2ccccc21	96*	9	6	2.0	2.4	.	7%	i	1.1
COC(=O)C1=C(c2cccc(OC)c2OC)C[C@@H]2CC[C@H]1N2C(=O)NC1CCCCC1	.	-6	-3	-2.2	-2.7	.	.	i	3.7
CC(=NCc1ccc2c(c1)OCO2)c1c(O)[nH]c(=O)[nH]c1=O	-13	.	.	.	.	0.73	9%	.	0.0
CC1=NN(c2ccccc2)C(=O)/C1=C/c1c(O)[nH]c(=O)[nH]c1=O	3	16	5	-0.6	-0.4	.	?	+	3.5
CCCOC(=O)Nc1ccc([As](=O)(O)O)cc1NC(=O)OCCC	36	1	8	-1.8	-0.5	0.65	19%	i	1.5
CCOC(=O)c1c(-c2ccc(OC)cc2)oc2ccc(OC(=O)N(C)C)cc12	-15	.	.	.	.	0.73	-4%	.	2.6
Cc1cccc(OP(=O)(Oc2ccccc2)OC(c2ccccc2)C(F)(F)F)c1 (stereo unspecified)	-6	4	9	-4.2	-5.1	0.71	26%	i	2.8
CC1(C)C(C(=O)N2CCN(c3ccc(Cl)cc3)CC2)C1(C)C	30	-5	-21	0.8	1.8	0.66	-2%	i	1.1
C[C@]12CC[C@H](O)C[C@H]1CC[C@@H]1[C@@H]2C[C@@H](O)[C@]2(C)[C@@H](C3=CC(=O)OC3)CC[C@]12O	-49	.	.	.	-3.6	.	.	i	-1.7
CN1CCc2cc3c(c4c2C1Cc1ccccc1-4)OCO3 (stereo unspecified)	22	-53	-78	1.2	6.6	.	.	i	-50
CC(=NCc1ccco1)c1c(O)n(-c2ccc(C)cc2)c(=O)[nH]c1=O	-4	-3	13	-1.5	-3.4	0.65	-3%	i	-2.1
COc1cccc2c1N=C1CCCC3CN(C(C)=O)CCC123 (stereo unspecified)	.	12	13	-0.4	2.6	0.7	-4%	i	-6.1

(list continues)
structure	ALR H2O2 inh	Ecoli rRNA inh	Ecoli rRNA inh OD600	Ecoli rRNA inh RFP	MLL AF4-AF9 inh	E coli growth	Vif TR-FRET	FGF22 binding	HNF4A DNA FP
Nc1c(C(=O)OCc2ccccc2)c2nc3ccccc3nc2n1Cc1cccs1	-2	.	.	.	.	0.77	1%	.	-1.4
O=c1[nH]c(O)c(N=Nc2ccc([N+](=O)[O-])cc2)c(=O)[nH]1	15	-43	-52	-4.5	2.0	0.65	12%	i	-3.2
CCc1ccc(NC(=O)CCNC(=O)N2C[C@H]3C[C@@H](C2)c2cccc(=O)n2C3)cc1	-7	.	.	.	0.7	0.72	.	i	0.0
CC1c2ccccc2-n2nncc2CN1CC1CCCCC1 (stereo unspecified)	.	-31	-51	-12	0.3	.	1%	i	1.9
O=C(c1ccccc1)C(O)(CN1CCCCC1)c1ccccc1 (stereo unspecified)	.	3	3	1.9	1.7	0.66	-9%	i	-3.6
CCC(C)C1NC(=O)C(C(C)=O)=C1O (stereo unspecified)	-4	6	5	-1.9	0.9	0.73	.	i	2.1
Cc1ccc(CN2C(=O)NC(=O)C3(Cc4c(nc5ccccn5c4=O)N4CCCCCC43)C2=O)cc1 (stereo unspecified)	-4	.	.	.	.	0.68	2%&-8%	.	5.9
Cc1c(O)ccc(C(=O)CN2CC(C)OC(C)C2)c1O (stereo unspecified)	-1	5	19	2.3	-0.8	0.67	5%	i	-0.9
COc1ccc(N=Nc2c(O)[nH]c(=S)[nH]c2=O)cc1	2	3	-1	8.6	-5.1	0.71	0%	i	80*
CCCCn1c(N)c(C(=O)NCCN2CCOCC2)c2nc3ccccc3nc21	-6	.	.	.	.	0.69	0%	.	2.4
Clc1ccccc1CN1CCN(c2cccc3[nH]ccc23)CC1	97*	.	.	.	.	0.66	4%	.	-5.8
Cc1ccc(-n2c(=S)[nH]c3ccccc3c2=O)cc1C	.	-3	7	-1.5	-0.7	.	.	i	5.4
N#Cc1c(Br)n(C2OC(CO)C(O)C2O)c2ncnc(N)c12 (stereo unspecified)	.	4	-7	-2.2	-6.1	.	-2%	i	-7.0
O=C(COc1ccc(Br)cc1)N1CCN(Cc2ccc3c(c2)OCO3)CC1	-9	-14	-16	0.7	-1.1	0.65	.	i	-2.1
O=c1[nH]c(=S)n(CCC2=CCCCC2)c(O)c1C=NC1CCN(Cc2ccccc2)CC1	9	.	.	.	.	0.69	4%	.	7.8
COc1cccc(-n2c(O)c(C=NCc3ccc4c(c3)OCO4)c(=O)[nH]c2=O)c1	3	.	.	.	.	0.75	16%	.	1.6
COc1ccccc1NC(=O)c1cn(CCC#N)nc1-c1ccc(F)cc1	33	-5	-5	-1.0	-1.8	.	2%	i	-5.0

3 entries out of the list, arranged by molar mass, high to low:
structure	ALR H2O2 inh	Ecoli rRNA inh	Ecoli rRNA inh OD600	Ecoli rRNA inh RFP	MLL AF4-AF9 inh	E coli growth	Vif TR-FRET	FGF22 binding	HNF4A DNA FP
Cc1ccc(CN2C(=O)NC(=O)C3(Cc4c(nc5ccccn5c4=O)N4CCCCCC43)C2=O)cc1 (stereo unspecified)	-4	.	.	.	.	0.68	2%&-8%	.	5.9
O=C(COc1ccc(Br)cc1)N1CCN(Cc2ccc3c(c2)OCO3)CC1	-9	-14	-16	0.7	-1.1	0.65	.	i	-2.1
CCCCn1c(N)c(C(=O)NCCN2CCOCC2)c2nc3ccccc3nc21	-6	.	.	.	.	0.69	0%	.	2.4

Screens: PubChem BioAssay, several laboratories
